Methyltransferases – Primary Screen for Target Class Profiling of Small Molecule Inhibitors of Methyltransferases | actives 3.9% (n = 25,000) | purified enzyme, MTase-Glo SAH luminescence; stronger effect = lower value | calls only at 40 µM | AID 1745853, 2022; active = -50% or lower on at least one of six enzymes; inconclusive = the cases between; inactive = as a rule above -30% on all six;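 further: enzymes were COMT GAMT GNMT HNMT NNMT and PNMT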
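Each enzyme was reacted with SAM and its substrate, with compounds tested once at 40 uM; SAH formed was read by MTase-Glo luminescence.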
Calls only; i = inactive; ? = inconclusive; + = active, no number; ! = repeats disagree. On the % scale 0 is the no-effect control and ±100 the full control effect.

SMILES	Methyltransferases
CN1C(=O)c2cc(NC(=O)CCC(=O)N3CCOCC3)ccc2N2CCN=C12	i
CCOc1ccc(N2C(=O)c3cc4sccc4n3CC2(C)C(=O)NC2CCCCCC2)cc1 (stereo unspecified)	i
Cc1ncccc1C(=O)N1C[C@H]2OC(=O)N(CCc3cccc(Cl)c3)[C@H]2C1	i
CCC1c2ccc(C)n2CCN1C(=O)Nc1cccc(Cl)c1C (stereo unspecified)	i
CC1(COc2ccc3c(c2)ncn3-c2ccc3cccc(N4CCC(N)CC4)c3n2)COC1	+
Cc1cccc(CNC(=O)C(C)n2ccc3cc(S(=O)(=O)N4CCCC4)ccc32)c1 (stereo unspecified)	i
Cc1ccc(NC(=O)N2CCn3cccc3C2C(C)C)cc1Cl (stereo unspecified)	i
O=C(CCn1ccc2cc(S(=O)(=O)N3CCCC3)ccc21)NCc1ccccn1	i
CCOc1ccc(OCC)c(NS(=O)(=O)c2ccc3[nH]c(=O)[nH]c3c2)c1	i
CC(C)CNC(=O)c1ccc2c(=O)n(C(C)C)c3nn(CC(=O)Nc4ccccc4F)c(=O)n3c2c1	i
CC1CCN(S(=O)(=O)c2ccc3c(ccn3CCC(=O)NCc3ccc4c(c3)OCO4)c2)CC1	i
CCCN1C(=O)c2cc3occc3n2CC1(C(=O)NC1CCCCCCC1)c1ccccc1 (stereo unspecified)	i
O=S(=O)(c1cc(F)ccc1F)N1CCC(n2cc(CCCO)nn2)CC1	i
CC(C)CCN1C(=O)c2ccc(-c3ccco3)n2CC1(C)C(=O)NC1CCC(C)CC1 (stereo unspecified)	i
C=CCn1c(=O)c2ccc(C(=O)NCC(C)C)cc2n2c(=O)n(CC(=O)Nc3ccc(C)cc3)nc12	i
CCc1cccc(N2C(=O)c3cc4ccccc4n3CC2(C)C(=O)NCCC(C)C)c1 (stereo unspecified)	i
CC1(C(=O)NC2CCCCC2)Cn2c(cc3occc32)C(=O)N1Cc1cccc(F)c1 (stereo unspecified)	i
COc1ccc(OC)c(S(=O)(=O)N2CCc3nc(-c4ccccc4)[nH]c3C2)c1	i
CCOc1ccc(N2C(=O)c3cc(C(C)(C)C)nn3CC2(C)C(=O)NC2CCCCC2)cc1 (stereo unspecified)	i
Cc1ccc(N2C(=O)c3cc4occc4n3CC2(C)C(=O)NC2CCCC(C)C2C)cc1C (stereo unspecified)	i
COC1C=C([C@@H]2CC=C3[C@@]4(C)C(CC[C@]32C)[C@@]2(C)C=CC(=O)C(C)(C)C2C[C@H]4OC(C)=O)C(=O)O1 (stereo partly specified)	i
COCC1(c2nc(C3CCOCC3)nn2-c2ccccc2)CCC1	i
CC(C)CC(c1c(O)c(C=O)c(O)c(C=O)c1O)C1CCC(C)(O)C2CC(C(C)(C)O)CCC12C (stereo unspecified)	?
CCCN1C(=O)c2c(C(=O)NCc3ccc(OC)cc3)ncn2CC1(C)C(=O)NC1CCCC1 (stereo unspecified)	i
CC(=O)NC(C(=O)OC1CCC(C)(C)C2CC=C3C(=O)OCC3C12C)C(C)C (stereo unspecified)	i
O=S(=O)(NC1CCC(c2cc(F)ccc2F)(S(=O)(=O)c2ccc(Cl)cc2)CC1)C(F)(F)F (stereo unspecified)	i
OC[C@H]1O[C@@H](Oc2cc(O)cc(/C=C/c3ccc(O)cc3)c2)[C@H](O)[C@@H](O)[C@@H]1O	+!
CCOc1ccc(CN2C(=O)c3ccc(-c4ccco4)n3CC2(C)C(=O)NC2CCC(C)CC2)cc1 (stereo unspecified)	i
Cc1ccc(N2C(=O)c3ccccc3CC2(C)C(=O)NCc2ccccc2)cc1 (stereo unspecified)	i
COc1ccc(CCNS(=O)(=O)c2ccc3[nH]c4c(c3c2)CCCC4)cc1OC	i
Cc1ccc(NC(=O)c2ncn3c2C(=O)N(C2CC2)C(C)(C(=O)NCCCOC(C)C)C3)cc1F (stereo unspecified)	i
CSc1cccc(N2C(=O)CSc3c(c4ccccc4n3C)C2C(=O)NCCCOC(C)C)c1 (stereo unspecified)	i
CN1CC(=O)N(C2CCCNCC2)Cc2c1ncnc2N1CCCC1CO (stereo unspecified)	i
CN(CC(=O)Nc1cccc(C(F)(F)F)c1)S(=O)(=O)c1ccc2[nH]c3c(c2c1)CCCC3	i
CC(C)c1ccc2c(c1)C(=O)CC1[C@@](C)(C(=O)O)CCC[C@]21C (stereo partly specified)	i
Cc1ccc(Cn2nc3n(CC(C)C)c(=O)c4ccc(C(=O)NC(C)C)cc4n3c2=O)cc1	i
CC1(C(=O)NC2CCCCC2)Cn2nc(-c3ccco3)cc2C(=O)N1CCc1ccc(Cl)cc1 (stereo unspecified)	i
O=[N+]([O-])c1cc(S(=O)(=O)Nc2ccc(O)c3ccccc23)ccc1Cl	+
CCCn1c(=O)c2ccc(Cl)cc2n2c(=O)n(Cc3cccc(F)c3)nc12	i
Cc1ccc2nc(CO[C@H]3CN(C4CCN(C)CC4)C[C@H]3F)[nH]c2c1	i
CCCn1c(=O)c2ccc(C(=O)NC3CCCCC3)cc2n2c(=O)n(CC(=O)c3ccc(C)cc3C)nc12	i
CC1CCN(S(=O)(=O)N2CCC(C(=O)N3CCc4nc5cc[nH]n5c(=O)c4C3)CC2)CC1	i
Cc1cc2c(cc3n2CC(C)(C(=O)NC2CCCCC2)N(Cc2ccccc2F)C3=O)o1 (stereo unspecified)	i
Cc1ccccc1OCc1nc(C2CN(C(=O)c3nccc4ccccc34)C2)no1	i
CC1CC(C)CN(S(=O)(=O)c2ccc3c(c2)oc(=O)n3CC(=O)N2CCCC2)C1 (stereo unspecified)	i
O=C(CCc1nnc2n(Cc3ccc(F)cc3)c(=O)c3ccccc3n12)N1CCN(c2ccc(F)cc2)CC1	i
COc1cccc(C2c3cccn3-c3sc4c(c3CN2C(=O)Nc2ccccc2C)CCCC4)c1 (stereo unspecified)	i
CSc1nc(N)c2ncn([C@@H]3O[C@H](COP(=O)(O)OP(=O)(O)O)C(O)[C@H]3O)c2n1 (stereo partly specified)	i
CCCn1c(=O)c2ccccc2n2c(SCC(=O)NCc3ccc(C)cc3)nnc12	i
CCOc1ccc(CCNC(=O)CCn2ccc3cc(S(=O)(=O)N4CCCC4)ccc32)cc1	i
The listing continues:
SMILES	Methyltransferases
CCC(C(=O)NCc1ccccc1C)n1ccc2cc(S(=O)(=O)N3CCCCC3)ccc21 (stereo unspecified)	i
COc1cc(OC(F)(F)F)ccc1C(=O)N1CCC(C)(C(=O)O)CC1	i
C/C=C(\C)C(=O)OC1CC2C(CC=C3CC(OC4CC(OC)C(OC5CC(OC)C(OC6CC(OC)C(OC7CC(OC)C(OC8CC(OC)C(OC9OC(CO)C(O)C(O)C9O)C(C)O8)C(C)O7)C(C)O6)C(C)O5)C(C)O4)CCC32C)C2(O)CCC(C(C)=O)C12C (stereo unspecified)	i
Cc1cccc(NC(=O)N2CCn3c(C)ccc3C2C(C)C)c1C (stereo unspecified)	i
O=S(=O)(c1ccc(F)cc1)N1CCC(c2noc(C3CC3)n2)C1 (stereo unspecified)	i
O=C(CCc1nnc2n(CCc3ccccc3)c(=O)c3ccccc3n12)N1CCN(c2ccccn2)CC1	i
Cc1ccc(-c2n[nH]n3c2nc(=O)c2ccc(C(=O)NCCc4ccc(Cl)cc4)cc23)cc1	i
Cc1nc2c(C#N)c[nH]n2c(=O)c1C(C)C	?
COC(=O)CNC(=O)c1nc(-c2ccc(Cl)cc2)c2ccccn12	i
Clc1ccccc1CNC[C@H]1Cn2ccnc2CO1	i
CC1(C(=O)NC2CCCC2)Cn2c(nc3ccccc32)C(=O)N1CCCc1ccccc1 (stereo unspecified)	i
COc1cccc(CCC(=O)N[C@@H]2CN(c3ncccn3)C[C@H]2CO)c1	i
Cn1c(Cn2cccn2)nnc1C1CC(NC(=O)c2sccc2N)C1 (stereo unspecified)	i
CCc1nc2c(c(-c3ccc(Cl)cc3)n1)CN([S+](C)(=O)[O-])CC2	i
Cc1cccc(NC(=O)c2ncn3c2C(=O)N(C2CC2)C(C)(C(=O)NCc2ccc(F)cc2)C3)c1C (stereo unspecified)	i
CCc1ccc(S(=O)(=O)N2CCC(C3CCN(C(C)=O)CC3)C2)cc1 (stereo unspecified)	i
CC(C)NC(=O)c1ccc2c(=O)n(C3CC3)c3nn(CC(=O)Nc4cccc(Cl)c4)c(=O)n3c2c1	i
C=C1CC23CC1(O)CCC2C1=CC2OC(=O)C(C)(C2O)C1C3C(=O)O (stereo unspecified)	i
CCCN1C(=O)c2c(C(=O)NCc3ccc(F)cc3)ncn2CC1(C)C(=O)NCc1ccc(OC)cc1 (stereo unspecified)	i
CN1C(=O)c2cc(C(=O)Nc3cccc(Cl)c3)nn2CC1(C)C(=O)NC1CCCCC1 (stereo unspecified)	i
C=CCOc1ccccc1CNc1ccc2[nH]c(=O)[nH]c2c1	i
CCCn1c(=O)c2cc(F)ccc2n2c(SCC(=O)Nc3cccc(Cl)c3)nnc12	i
CC(C)c1cc(-c2ccc(F)c3ccccc23)nc(N)n1	i
O=S(=O)(NCc1cccnc1)c1ccc(Cl)c(-c2nnc(-c3ccccc3)o2)c1	i
CCOc1ccc(CCNC(=O)c2cc3n(n2)CC(C)(C(=O)NCc2ccc(C)cc2)N(C)C3=O)cc1 (stereo unspecified)	i
CCCCc1cc(C[C@@H]2C[C@H](NC(=O)NCC)C2(C)C)no1	i
COC(=O)c1cc2n(n1)CC(C)(C(=O)NC1CCC(C)CC1)N(Cc1ccc(F)cc1)C2=O (stereo unspecified)	i
COCCCNC(=O)C1(C)Cn2nc(-c3ccccc3)cc2C(=O)N1c1cc(C)cc(C)c1 (stereo unspecified)	i
Cc1ccc(CNC(=O)c2cc3n(n2)CC(C)(C(=O)NC2CCCCCC2)N(C)C3=O)cc1 (stereo unspecified)	i
COc1ccc(C(=O)N2CCC(n3c(C)cnc3-c3ccncc3)C2)c(OC)c1 (stereo unspecified)	i
CC1CCCC(NC(=O)C2(C)Cn3c(nc4ccccc43)C(=O)N2Cc2ccc(Cl)cc2)C1C (stereo unspecified)	i
CC(C)Cn1c(=O)c2ccccc2n2c(CCC(=O)N3CCN(C4CCCCC4)CC3)nnc12	i
CC1(C)C(=O)Nc2ccc(S(=O)(=O)N3CCCC(c4nn[nH]n4)C3)cc21 (stereo unspecified)	i
Cc1ccccc1/C=C/C1=NCCN1	i
Cc1ccc(-c2cc3c(ccn3C)c(C(=O)NCc3cccnc3)n2)cn1	i
C[S+](=O)([O-])N1CC2(CCCCN2Cc2ccc(Cl)cc2)Cc2ccccc21 (stereo unspecified)	i
O=C(Nc1ccc(N2C(=O)[C@@H]3[C@H](C2=O)[C@@H]2C=C[C@H]3C2)c(Cl)c1)c1ccccn1	i
O=C1NC(=NC2CCCC2)C2(CCN(Cc3cccnc3)C2)N1c1cc(F)cc(F)c1 (stereo unspecified)	i
CCc1ccccc1NC(=O)N1CCn2c(C)ccc2C1CC (stereo unspecified)	i
CN1C(=O)c2cc(NC(=O)C3CCN(S(=O)(=O)N4CCCC4)CC3)ccc2N2CCN=C12	i

Reformatted in CSV form: part of the list above.
smiles,Methyltransferases
COC(=O)c1cc2n(n1)CC(C)(C(=O)NC1CCC(C)CC1)N(Cc1ccc(F)cc1)C2=O (stereo unspecified),i
COCCCNC(=O)C1(C)Cn2nc(-c3ccccc3)cc2C(=O)N1c1cc(C)cc(C)c1 (stereo unspecified),i
Cc1ccc(CNC(=O)c2cc3n(n2)CC(C)(C(=O)NC2CCCCCC2)N(C)C3=O)cc1 (stereo unspecified),i
COc1ccc(C(=O)N2CCC(n3c(C)cnc3-c3ccncc3)C2)c(OC)c1 (stereo unspecified),i
CC1CCCC(NC(=O)C2(C)Cn3c(nc4ccccc43)C(=O)N2Cc2ccc(Cl)cc2)C1C (stereo unspecified),i
CC(C)Cn1c(=O)c2ccccc2n2c(CCC(=O)N3CCN(C4CCCCC4)CC3)nnc12,i
CC1(C)C(=O)Nc2ccc(S(=O)(=O)N3CCCC(c4nn[nH]n4)C3)cc21 (stereo unspecified),i
Cc1ccccc1/C=C/C1=NCCN1,i
Cc1ccc(-c2cc3c(ccn3C)c(C(=O)NCc3cccnc3)n2)cn1,i
C[S+](=O)([O-])N1CC2(CCCCN2Cc2ccc(Cl)cc2)Cc2ccccc21 (stereo unspecified),i
O=C(Nc1ccc(N2C(=O)[C@@H]3[C@H](C2=O)[C@@H]2C=C[C@H]3C2)c(Cl)c1)c1ccccn1,i
O=C1NC(=NC2CCCC2)C2(CCN(Cc3cccnc3)C2)N1c1cc(F)cc(F)c1 (stereo unspecified),i
CCc1ccccc1NC(=O)N1CCn2c(C)ccc2C1CC (stereo unspecified),i
CN1C(=O)c2cc(NC(=O)C3CCN(S(=O)(=O)N4CCCC4)CC3)ccc2N2CCN=C12,i

Next part
SMILES	Methyltransferases
CCC(=O)N1CCC(n2nccc2NC(=O)Nc2ccccc2Cl)CC1	i
COCC1OC(OC(C)(C)C2CCC3(C)C=C(C4CCC5C4(C)CC(O)C4OC(C(C)(C)OC6OC(CO)C(O)C(O)C6NC(C)=O)CCC45C)CCC3O2)C(NC(C)=O)C(O)C1O (stereo unspecified)	i
CCOC(=O)C1CCCN(C(=O)C2CCc3nnc(C4CCN(C(C)=O)CC4)n32)C1 (stereo unspecified)	i
COc1ccc(OC)c2c1cc1n2CC(C)(C(=O)NC2CCC(C)CC2)N(Cc2ccco2)C1=O (stereo unspecified)	i
COCc1c(Cl)ccc2c1CC[C@H]2c1ncc[nH]1	i
O=C(Nc1ccccc1)N1CCC(N2CCCNC2=O)CC1	i
COc1ccc(CN2C(=O)c3nc4ccccc4n3CC2(C)C(=O)NCc2ccccc2)c(OC)c1 (stereo unspecified)	i
CCCOc1ccc(CN2C(=O)c3cc(C(C)C)nn3CC2(C)C(=O)NC2CCCCCC2)cc1 (stereo unspecified)	i
Cc1nnnn1CCC(=O)Nc1nn(C)c2cccc(N3CCOCC3)c12	i
CC(C)CCNC(=O)C1(C)Cn2c(cc3occc32)C(=O)N1Cc1ccc(Cl)cc1 (stereo unspecified)	i
COc1ccc(OC)c(CNC(=O)c2cc3n(n2)CC(C)(C(=O)NC2CCCCC2)N(C)C3=O)c1 (stereo unspecified)	i
Cc1ccc(S(=O)(=O)c2nnn3c2nc(NC(C)C)c2ccccc23)cc1	i

Compound activity: PubChem BioAssay, National Center for Advancing Translational Sciences (NCATS)

A portion of the library, so the mix of outcomes need not match the whole.
